Source: PubChem BioAssay
NPYLR7 ag: activates Aedes aegypti NPYLR7 receptor | HEK293T NPYLR7/Galpha15, GCaMP6s calcium fluorescence | activation, % at 10 µM | 270,000 tested, 0.15% active; in the data active = activation above about 40%;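 note: 0% = vehicle and 100% = reference agonist at the receptor; some compounds past the cut are filed as inactive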
NPYLR7 ag max-min: further read-out of NPYLR7 ag, marked with its call; activation, %; measured here: Max-Min RFU normalised activation; some inactives read as strong as hits;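 span of the calcium signal over five minutes; 0% = vehicle and 100% = native peptide agonist; compound fluorescence can raise it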
Starred values were filed as active, the others as inactive; & = joins results of further samples.

SMILES	NPYLR7 ag	NPYLR7 ag max-min
COC(=O)c1ccc(OCC(=O)Nc2c(C)nn(C)c2C)cc1	1	0
CS(=O)(=O)NC1CCN(C(=O)c2cn(-c3ccccc3)nn2)CC1	-1	-3
CCC(C)CNC(=O)c1coc(CN2CCNCC2)n1 (stereo not given)	4	1
COc1ccc(C(C)C)cc1S(=O)(=O)Nc1ccc(Br)cc1	1	1
Cc1[nH]n(-c2ccccc2)c(=O)c1C(C[N+](=O)[O-])c1ccccc1 (stereo not given)	4	-2
CCN(CC(=O)Nc1ccc(NC(C)=O)cc1)S(=O)(=O)c1ccc2c(c1)CCC2	9	5
Cc1nn(S(=O)(=O)N2CCCCC2)c(C)c1Br	-3	-3
CCCCS(=O)(=O)N1CCCN(c2nc(CCC)nc3onc(-c4cccc(C(F)(F)F)c4)c23)CC1	19	7
CC(C)n1cc(C(=O)N2CCN(Cc3ccc(F)cc3)CC2)c2nn(-c3ccccc3)c(=O)c-2c1	-4	-6
Cc1cnn(C(C)C(C)NCc2ccc(N3CCOCC3)c(F)c2)c1 (stereo not given)	-2	-4

Already shown: seven of the compounds above.
SMILES	NPYLR7 ag	NPYLR7 ag max-min
COC(=O)c1ccc(OCC(=O)Nc2c(C)nn(C)c2C)cc1	1	0
CS(=O)(=O)NC1CCN(C(=O)c2cn(-c3ccccc3)nn2)CC1	-1	-3
CCC(C)CNC(=O)c1coc(CN2CCNCC2)n1 (stereo not given)	4	1
COc1ccc(C(C)C)cc1S(=O)(=O)Nc1ccc(Br)cc1	1	1
Cc1[nH]n(-c2ccccc2)c(=O)c1C(C[N+](=O)[O-])c1ccccc1 (stereo not given)	4	-2
CCN(CC(=O)Nc1ccc(NC(C)=O)cc1)S(=O)(=O)c1ccc2c(c1)CCC2	9	5
Cc1nn(S(=O)(=O)N2CCCCC2)c(C)c1Br	-3	-3

Other records follow:
SMILES	NPYLR7 ag	NPYLR7 ag max-min
COc1ccc(CN2C3CCC2CC(NS(=O)(=O)c2cc(C)ccc2OC)C3)c(OC)c1 (stereo not given)	0	2
CCCCCn1c(=O)c2c(nc3n2CCN3c2ccc(F)cc2)n(C)c1=O	2	6
COc1ccc(C)cc1-n1ccc(C(=O)N2CC(C(N)=O)CCC2C)n1 (stereo not given)	-27	-28
Cc1ccc(C(=O)N(CC(C)C)CC2CN(Cc3ccc(F)cc3)CCO2)cc1 (stereo not given)	3	2
Clc1ccc(-c2cc(Cl)ncn2)cc1	-2	1
CSc1ccc(CNC(=O)C2(C)CCCCN2C)cc1 (stereo not given)	6	2
COc1ccc(F)c(-c2ccnc(CO)c2)c1	22	15
Cc1cc(NC(=O)CN2CCC(Oc3c(C)cccc3C)CC2)on1	-1	-5
CCOC(=O)c1ccc(Nc2ncnc3c2nnn3CC)cc1	6	12
CCOC(=O)N1CCN(C2CCCN(C(=O)c3cc4c(s3)CCCCC4)C2)CC1 (stereo not given)	1&3	-3&1

A second format for part of the listing above.
Compound,NPYLR7 ag,NPYLR7 ag max-min
CCCCCn1c(=O)c2c(nc3n2CCN3c2ccc(F)cc2)n(C)c1=O,2,6
COc1ccc(C)cc1-n1ccc(C(=O)N2CC(C(N)=O)CCC2C)n1 (stereo not given),-27,-28
Cc1ccc(C(=O)N(CC(C)C)CC2CN(Cc3ccc(F)cc3)CCO2)cc1 (stereo not given),3,2
Clc1ccc(-c2cc(Cl)ncn2)cc1,-2,1

(next part)
SMILES	NPYLR7 ag	NPYLR7 ag max-min
COCCN(Cc1nccn1Cc1ccc(Cl)cc1Cl)C(=O)c1ccco1	28	32
Cc1cn2c3c(=O)n(CC(N)=O)c(=O)n(C)c3nc2n1-c1ccc(N(C)C)cc1	-8	-10
O=c1c2cccc(F)c2ncn1CC1CCCCO1 (stereo not given)	21	14
CN1CCSC1=Nc1cc(S(=O)(=O)N2CCOCC2)ccc1Cl	13	12
CC1(C)CN=C(SCCN2C(=O)c3ccccc3C2=O)NC1	3	2
Cc1ccc(F)c(NC(=O)CN(Cc2ccccn2)CC2CCCO2)c1 (stereo not given)	1	-1
Cc1nc(N2CCNC(=O)C2)c2c(CC(C)C)csc2n1	3	0
Cc1ccccc1Oc1ncccc1CNC(=O)C1CCCN1S(C)(=O)=O (stereo not given)	-2	-3
COc1ccc2nc(-c3ccc(C)c(NS(=O)(=O)c4ccc(Cl)s4)c3)cn2n1	-10	-20
COC(=O)c1cc(S(=O)(=O)N(C)Cc2ncnn2C)cc(F)c1F	8	5
CCc1nnsc1C(=O)NCCCCN1CCN(c2ccccc2)CC1	3	1
Cc1c(C(=O)N2CCN(C(=O)c3ccccc3Cl)CC2)cc(-c2ccccc2)n1-c1ccc(F)cc1F	15	14
O=C1CC(c2ccncc2Cl)c2cnn(Cc3ccco3)c2N1 (stereo not given)	-2	6
COc1ccc(-c2ccc(SCC(=O)N3CCC(C)CC3)nn2)cc1OC	-3	-4
COc1ccc(NC(=O)C2(C)CCN2CC2CCCCC2)cc1OC (stereo not given)	2	-1
CNC(=O)[C@H]1C[C@]2(CCCCNC2=O)N(C(=O)c2ccc3c(c2)OCCCO3)[C@H]1c1ccco1	6	16
O=C1CC(c2cccc(F)c2)N(Cc2ccc(O)cc2)CCN1 (stereo not given)	-8	-8
Cn1c(=O)c2c(ncn2CCCC(=O)Nc2nc(-c3cccs3)cs2)n(C)c1=O	2	10
CCc1nc2cc(NC(C)=O)cc(C(=O)N3CCCC(c4ccccc4C)C3)c2n1Cc1cccnc1 (stereo not given)	-1	-2
CCOC(=O)c1ccoc1COc1ccc(C#N)cc1Cl	-3	-3

Reformatted: entries from further up.
The line under a structure holds: NPYLR7 ag	NPYLR7 ag max-min
CCOC(=O)c1ccc(Nc2ncnc3c2nnn3CC)cc1
  6	12
Cc1cn2c3c(=O)n(CC(N)=O)c(=O)n(C)c3nc2n1-c1ccc(N(C)C)cc1
  -8	-10
COCCN(Cc1nccn1Cc1ccc(Cl)cc1Cl)C(=O)c1ccco1
  28	32
CCc1nc2cc(NC(C)=O)cc(C(=O)N3CCCC(c4ccccc4C)C3)c2n1Cc1cccnc1 (stereo not given)
  -1	-2
Cc1ccc(F)c(NC(=O)CN(Cc2ccccn2)CC2CCCO2)c1 (stereo not given)
  1	-1
COc1ccc(-c2ccc(SCC(=O)N3CCC(C)CC3)nn2)cc1OC
  -3	-4
COc1ccc(C)cc1-n1ccc(C(=O)N2CC(C(N)=O)CCC2C)n1 (stereo not given)
  -27	-28

Other entries follow.
SMILES	NPYLR7 ag	NPYLR7 ag max-min
Cc1oc(-c2nc3ccccc3n2C)cc1C(=O)c1ccccc1	-20	-29
Cc1n[nH]c(C)c1S(=O)(=O)N1CCc2ccccc21	15	7
Cc1ccc(P(C)(=O)c2ccc(C)cc2)cc1	-9	-15
Cc1ccc(S(C)(=O)=O)cc1C(=O)N1CCC(c2c[nH]c3ccccc23)CC1	5	1
O=C(CN1C(=O)C2CC=CCC2C1=O)NCCN1C(=O)SC(=Cc2ccccc2F)C1=O (stereo not given)	-4	8
CN1CCN(S(=O)(=O)c2ccc(Cl)nc2)c2cc(F)ccc21	3	3
CC(=O)c1ccc(N2CCCC2)cc1OCc1cccc(C)c1	8	5
Cc1noc(C)c1C(C)C(=O)NCc1ccc(N2CC=CC2)cc1 (stereo not given)	7	10
O=c1[nH]c(CN(Cc2ccco2)CC(O)COc2ccc(Cl)cc2)nc2sc3c(c12)CCCCC3 (stereo not given)	-2	3
COc1cccc(CCNC(=O)c2cc(N3CCCC(C)C3)nc3ccccc23)c1 (stereo not given)	6	-1
O=S(=O)(C=C(O)c1ccccc1)c1ccc(Cl)c(Cl)c1	-5	-6
CN1CC[C@H](N(Cc2ccccc2)C(=O)c2ccccc2)C[C@H](O)C1	5	16
COc1ccc(S(=O)(=O)N(CC(=O)NCc2ccccn2)c2ccc(C)cc2)cc1OC	-2	-5
Cc1nc(CSCC(=O)Nc2ccc(C)c(Cl)c2)no1	0	0
COc1ccc(NC(=O)CC2OCC3CCCCN3C2=O)cc1 (stereo not given)	0	-1
CCS(=O)(=O)c1cccc(-c2cc(C(=O)NC3CCN(C)CC3)c(C)c3[nH]c4ncc(C)cc4c23)c1	1	-3
O=C(NCC1CC(=O)N(C2CC2)C1)c1ccc2oc(Cc3ccc(Cl)cc3)nc2c1 (stereo not given)	17	6
CN(C)CCN(Cc1ccccc1)C(=O)c1cc(-c2ccccc2F)n2nc(-c3ccccc3)cc2n1	-8&13	0&22
C=CCOCC1CN(Cc2ccc(OC)cc2)S(=O)(=O)c2cccnc2O1 (stereo not given)	1	11
O=C(CN1CCc2sccc2C1)Nc1cc(F)cc(F)c1	2	2
CC(C)(O)c1ccc(CN(Cc2ccccc2)CC2CCCO2)o1 (stereo not given)	-5	-4
CC1COCC(C)N1CC(=O)NC(=O)NCCc1cccs1 (stereo not given)	1	3
Cc1ccc(NC(=O)NCC2CCCN(Cc3ccncc3)C2)cc1 (stereo not given)	5	3
C=C(C)Cn1c(N2CCN(Cc3ccc(Cl)cc3Cl)CC2)nc2c1c(=O)[nH]c(=O)n2C	20	12
CCOC(=O)CSc1nn(C)c(=S)s1	2	0
O=Nc1c(-c2c(O)[nH]c3cc(Br)ccc23)[nH]c2ccccc12	4	-34
CCCCCN(Cc1nc(C(=O)OCC)cs1)C(=O)Nc1ccc(F)c(Cl)c1	-4	5
Cc1nnc(C(C)OC(=O)c2cc(Br)ccc2C)o1 (stereo not given)	5	3
Cc1ccc(C)c2sc(N(Cc3cccnc3)C(=O)C3CCCN3S(C)(=O)=O)nc12 (stereo not given)	1	2
CN(C)c1ccc(NC(=O)C2CCC2)cc1CN(C(=O)c1cccc(F)c1)C1CCCCC1	1	13
Cc1nccn1-c1cc(N2CCN(C(=O)c3ccc(Br)o3)CC2)ncn1	-18	-19
O=C(COC(=O)C1CCOCC1)NCc1ccco1	1	-1
Cn1c(=O)[nH]c(=O)c2c1nc(N1CCN(Cc3ccccc3)CC1)n2CCCSc1ncccn1	-1	11
CCOC(=O)C1CCN(C(c2cccnc2)c2c(C)[nH]c3ccccc23)CC1 (stereo not given)	3	1
COCCn1c(C)c(C)n2c3c(=O)n(CCCc4ccccc4)c(=O)n(C)c3nc12	2	4
CCOC(=O)c1sc(=NC(=O)c2nc3ccccc3s2)n(C)c1C	0	1
COC(=O)c1ccc(F)c(NC(=O)c2cc(C)[nH]c2C)c1	-2	-1
O=C(Nc1ccccc1F)c1cc2n(n1)CCN(CC1CC1)C2=O	-7	7
N#C/C(=C\c1ccc(O)c(O)c1)C(=O)NCCCc1ccccc1	120*	66*
COCCC(=O)Nc1ccc2c(c1)CN(Cc1ccoc1)CC2	2	-1
CC(=O)OCC12COC(=O)C1(C)C1CCC2O1 (stereo not given)	8	11
COc1ccc(CNC(=O)CCn2cnc3sc4c(c3c2=O)CCCC4)cn1	7	3
CC(=O)c1ccc(NC(=O)COc2cc(=O)n3ccccc3n2)cc1	-6	-2
CC(=O)c1cccc(Nc2cc3[nH]c(-c4cccc(F)c4)cc3cn2)c1	14	30
Cn1cc(Cl)c(-c2c(-c3ccccc3)ncn2CCc2cnc[nH]2)n1	16	5
COC(=O)c1ccc2c(c1)CN(C(=O)c1ccc(-n3cccc3)cc1)CC2	10	13
CCOC(=O)N1CCN(C(=O)COC(=O)c2[nH]c(C)c(C(C)=O)c2C)CC1	-1	38
C/C=C\C(=O)N1CCN(Cc2nnnn2-c2cccc(F)c2)CC1	-2	-2
CC(C)N1CCN(Cc2cccc3c2oc2ccccc23)CC1CCO (stereo not given)	-2	-2
Fc1cccc(/C=N\N=C/c2cccc(F)c2)c1	5	-48

The listing continues.
SMILES	NPYLR7 ag	NPYLR7 ag max-min
COCCNC(=O)Cc1cc(-c2cc3ccccc3o2)on1	7	11
CCc1nc2n(n1)C(=O)C(C(c1ccc(F)cc1)N1CCN(CCO)CC1)S2 (stereo not given)	-2	-7
CN(Cc1cnc2ccccc2n1)c1nccc(CCC(F)(F)F)n1	17	6
CCOC(=O)C1=C(O)/C(=C\c2ccc([N+](=O)[O-])cc2)SC1=Nc1ccc(OC)c(OC)c1	8	7
CC(=O)NCCNC(=O)c1nnc2n1CCN(C(=O)Cc1ccccc1)C2	7	3
O=C(O)CCc1nnc(SCc2ccc(Br)cc2)[nH]c1=O	14	8
Cc1cc(C)nc(NCC(c2ccc(F)cc2)N2CCOCC2)n1 (stereo not given)	0	1
CCn1ncnc1CN1CCOc2c(O)cc(-c3nc(C)cnc3C)cc2C1	5	2
CCCCCc1ccc(C(=O)Nc2ccc(-n3nc(OCC(C)C)nc3-c3ccccc3C)cc2)cc1	3	13
CCC(C)(C)NC(=O)c1ccc(NCc2nc(C(C)C)no2)cc1Cl	21	20
Cc1nc(C(=O)N2CCCC(Nc3ccc(C)c(C)c3)C2)cs1 (stereo not given)	4	2
CC1CN(c2cc(Oc3ccccc3Cl)ncn2)CCN1C(=O)Cc1ccc(F)cc1 (stereo not given)	5	8
Cc1ccc(-n2ncc3c(C(C)C)n[nH]c(=O)c32)cc1C	-2	-3
c1ccc(CCN=C2SCCN2Cc2ccccc2)cc1	2	1
CCS(=O)(=O)Oc1cc(CN(CC(C)C)S(=O)(=O)c2ccc(F)cc2)ccc1OC	-3	5
CN(C)CCOC(=O)C12CC3CC(C)(CC(C)(C3)C1)C2	-2	-3
CC1(C(=O)NS(=O)(=O)c2ccc3c(c2)CCO3)CCN1C(=O)C1(c2ccccc2)CC1 (stereo not given)	2	3
Cc1ccc(C)c(NC(=O)CCNC2CCN(C(=O)c3ccccc3)CC2)c1	21	6
O=C(NCCO)c1cc2ccccc2oc1=O	-8	-16
CN(CCCc1cnn(C)c1)C(=O)C1(C)CCCCO1 (stereo not given)	7	4

Some of the compounds tested; rates above refer to the full screens.
